KCNQ2 pot = potentiators of rat KCNQ2 potassium channel | O88943 | CHO-K1 KCNQ2, FluxOR thallium flux fluorescence; hits give high values | B-score at 10 µM | 310,000 compounds, 0.54% hits | AID 2239;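 active means fluorescence ratio B-score at least 3 SD of library B-scores, with initial fluorescence B-score within 3 SD, cut at about 5.3 in these data; same plate scores as AID 2156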;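 further: B-score of peak minus minimum over baseline fluorescence ratio after K+ and Tl+ stimulus; positive B-score means potentiation of KCNQ2 with more thallium influx and brighter signal; only the inactives scoring about 0 or higher are listed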
Target sequence (O88943 whole entry, looked up): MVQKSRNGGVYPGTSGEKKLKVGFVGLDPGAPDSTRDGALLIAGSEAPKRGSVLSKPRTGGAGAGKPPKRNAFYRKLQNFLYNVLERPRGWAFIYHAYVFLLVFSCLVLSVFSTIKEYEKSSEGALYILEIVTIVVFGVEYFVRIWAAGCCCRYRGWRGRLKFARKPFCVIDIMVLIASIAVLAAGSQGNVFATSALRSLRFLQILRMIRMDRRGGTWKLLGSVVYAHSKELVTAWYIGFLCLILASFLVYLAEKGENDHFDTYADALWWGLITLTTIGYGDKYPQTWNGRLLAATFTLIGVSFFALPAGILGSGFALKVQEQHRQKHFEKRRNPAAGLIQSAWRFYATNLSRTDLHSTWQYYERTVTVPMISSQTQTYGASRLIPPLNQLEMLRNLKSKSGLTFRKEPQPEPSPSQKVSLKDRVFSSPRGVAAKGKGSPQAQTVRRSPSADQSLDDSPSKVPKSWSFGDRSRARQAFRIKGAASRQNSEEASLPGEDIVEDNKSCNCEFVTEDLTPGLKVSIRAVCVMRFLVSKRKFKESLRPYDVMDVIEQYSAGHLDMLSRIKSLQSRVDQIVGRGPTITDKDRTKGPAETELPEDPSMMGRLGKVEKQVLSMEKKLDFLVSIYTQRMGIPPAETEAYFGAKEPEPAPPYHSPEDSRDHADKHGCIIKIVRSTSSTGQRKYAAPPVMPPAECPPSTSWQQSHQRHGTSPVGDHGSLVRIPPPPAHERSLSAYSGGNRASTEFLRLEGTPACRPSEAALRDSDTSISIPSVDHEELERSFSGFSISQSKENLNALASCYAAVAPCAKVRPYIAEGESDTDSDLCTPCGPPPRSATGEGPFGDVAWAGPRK
KCNQ2 pot baseline = recorded beside KCNQ2 pot, whose call it bears; B-score; compound at 10 µM; measured here: initial fluorescence intensity artifact check;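 brightness before thallium and not channel activity; 0 = typical well and far values either way flag optical interference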
Active calls of the source: *. The list is partial. The share of hits here may be higher or lower than overall.

Each structure is followed by: KCNQ2 pot	KCNQ2 pot baseline
COc1ccc(NC(=O)CCNS(=O)(=O)c2cccc3nsnc23)cc1
  2.55	-0.64
CCOC(=O)C1CCN(C(=O)CSc2n[nH]c(=O)[nH]c2=O)CC1
  0.07	-1.09
COc1cc(CNc2ccc(N3CCOCC3)c(C(=O)O)c2)ccc1OCC(N)=O
  0.01	0.33
CC1CC(=O)N(c2ccc(NCc3ccc(Cl)cc3)c([N+](=O)[O-])c2)C1=O (centres undefined)
  0.32	0.62
O=C1NN(c2ccccc2)C(=O)/C1=C/c1ccc(-c2cccc(C(=O)O)c2)o1
  1.83	-1.55
CCCOc1ccc(C(=O)N/N=C/c2ccc(-c3ccc(S(=O)(=O)Nc4ncccn4)cc3)o2)cc1
  1.22	-0.37
NC(=O)c1ccsc1NC(=O)CSc1nnc(C2CC2)n1Cc1ccccc1
  0.96	-1.91
O=C([C@@H]1Cc2ccccc2CN1)N1CCN(Cc2ccccc2)CC1
  0.12	-0.1
CCCCn1c(N)c(Sc2ccccc2[N+](=O)[O-])c(=O)[nH]c1=O
  1.79	-0.08
Cc1ccc(-c2c[n+](CC(=O)Nc3ccccc3)c3n2CCC3)cc1
  1.59	-1.01

Quoted from the listing:
O=C([C@@H]1Cc2ccccc2CN1)N1CCN(Cc2ccccc2)CC1 in KCNQ2 pot baseline → -0.1
CCCOc1ccc(C(=O)N/N=C/c2ccc(-c3ccc(S(=O)(=O)Nc4ncccn4)cc3)o2)cc1 in KCNQ2 pot → 1.22

(more compounds)
Each structure is followed by: KCNQ2 pot	KCNQ2 pot baseline
COc1ccc(S(=O)(=O)N2CCCC(C(=O)NCc3cccnc3)C2)cc1OC (centres undefined)
  1.44	0.12
CCOc1ccc(NC(=O)CCN2CCN(c3ccccc3F)CC2)cc1
  1.04	-2.5
COc1ccc(/C=C/C(=O)NCc2cn(C)nc2C)cc1COc1ccc(Br)cc1
  1.03	-0.05
O=C(O)CCSCCCN1C(=O)c2cccc3cccc(c23)C1=O
  1.49	-2.27
COc1ccc(NC(=S)N=Nc2c(O)[nH]c3ccccc23)cc1
  0.5	0.44
CCOC(=O)c1ccc(NCc2ccncc2)cc1
  0.92	-0.43
COc1ccc(OCC(=O)Nc2ccc(C)c(S(=O)(=O)N(C)C)c2)cc1
  0.22	0.69
O=C(C1CCN(Cc2ccccc2)CC1)N1CCN(C/C=C/c2ccccc2)CC1
  1.16	0.93
COc1ccc(N2CCN(C(=O)c3sc4ncn(CC(=O)N5CCCCC5C)c(=O)c4c3C)CC2)cc1 (centres undefined)
  0.03	1.06
Cc1ccc(NC(=O)Cc2csc(-c3ccccc3)n2)cc1F
  1.48	-0.03
CCCCn1nnnc1SCC(=O)N(CC)CC
  1.37	-0.02
Cc1ccc(C(=O)Nc2sc(Cc3ccc4c(c3)OCO4)c(C)c2C(N)=O)cc1
  0.73	0.91
COc1cc2ccccc2cc1C(=O)N1CCOCC1
  1.07	-0.38
COc1cc(/C=C2\C(=N)N3N=C(CC(=O)N4CCOCC4)SC3=NC2=O)cc(OC)c1OC
  0.96	-0.05
Cn1cccc1CC(=O)N/N=C/C=C/c1ccco1
  0.09	-0.26
Cc1ccc(CC23CN4CCN(CC(C4)C2O)C3)c(C)c1 (centres undefined)
  1.07	0.79
CCC(C)n1nccc1NC(=O)C(C)Cl (centres undefined)
  0.55	-0.92
Cc1noc(C)c1C(=O)Nc1ccc(N(C)C)cc1
  0.36	0.31
O=C(CNC(=O)C12CC3CC(CC(C3)C1)C2)N1CCN(S(=O)(=O)c2cccs2)CC1
  0.03	0.3
CCCn1c(NC(=O)c2ccc(C)cc2)nc2ccccc21
  0.08	1.05
O=C(C(c1ccccc1)c1ccccc1)N(Cc1ccco1)C1CCS(=O)(=O)C1 (centres undefined)
  0.03	-0.8
N#Cc1c(-c2ccccc2)nc(-c2ccccc2)nc1N1CCOCC1
  0.84	-0.48
Cc1nc(NC(=O)c2ccc(F)cc2)nc2cc3c(cc12)OCO3
  0.31	0.48
C[C@@H]1C(NC(=O)c2ccccc2)CC2CC1C2(C)C (some centres undefined)
  0.02	0.39
CC(=O)Nc1ccc(C(=O)N/N=C(\C)CC(=O)Nc2ccc(OCc3ccccc3)cc2)cc1
  0.14	-1.92
CCCCn1nc2cc(C(=O)NCCc3cccs3)ccc2c1OCC
  0.55	-1.14
CCOC(=O)N1CCN(C(=O)c2ccc(CNS(=O)(=O)c3ccc(NC(C)=O)cc3)cc2)CC1
  0.15	1.05
COc1cc(/C=C/C(=O)OCC(=O)Nc2ccc([N+](=O)[O-])cc2)ccc1O
  0.42	3.41
O=C(Nc1ccc(N2CCN(c3ccc(O)cc3)CC2)cc1)Oc1ccccc1
  0.69	0.03
N#Cc1c(N2CCCC2)nc(N)c2c(N)nc(N3CCCC3)cc12
  0.42	0.06
Cc1c(C(=O)OCC(=O)N2CCCC2=O)oc2ccccc12
  0.72	1.36
Cc1nc2nc(NC(=O)c3ccco3)nn2c(C)c1Cl
  1.32	0.23
COc1ccc(S(=O)(=O)N(CC(=O)N2CCOCC2)Cc2ccccc2)cc1
  0.09	-0.87
CC(=O)NC1C(Oc2ccc(C=O)cc2)OC(COC(C)=O)C(OC(C)=O)C1OC(C)=O (centres undefined)
  0.72	-0.41
Fc1ccc(-c2nnn3c2nc(NCc2ccccc2)c2ccccc23)cc1
  0.25	-1.61
CCN(CC)S(=O)(=O)c1ccc(N/N=C/c2cc(OC)ccc2O)nc1
  2.36	5.16
NC(=O)c1c(NC(=O)CCCC(=O)O)sc2c1CCCCCC2
  0.36	-1.24
CCOc1ccc(NC(=O)COC(=O)c2ccc3c(c2)C(=O)N(CCc2ccccc2)C3=O)cc1
  0.83	0.06
O=c1c2ccccc2nc(-c2ccco2)n1/N=C/c1ccco1
  2.75	-1.17
COc1cc(C)nc(N2CCCC(C(=O)Nc3cccc(Cl)c3C)C2)n1 (centres undefined)
  0.04	0.4

By substructure, those above containing a nitro group on carbon.
Each structure is followed by: KCNQ2 pot	KCNQ2 pot baseline
CC1CC(=O)N(c2ccc(NCc3ccc(Cl)cc3)c([N+](=O)[O-])c2)C1=O (centres undefined)
  0.32	0.62
CCCCn1c(N)c(Sc2ccccc2[N+](=O)[O-])c(=O)[nH]c1=O
  1.79	-0.08
COc1cc(/C=C/C(=O)OCC(=O)Nc2ccc([N+](=O)[O-])cc2)ccc1O
  0.42	3.41

Further structures follow.
Each structure is followed by: KCNQ2 pot	KCNQ2 pot baseline
O=C(COC(=O)Cn1cnc2ccccc21)NCCCc1ccccc1
  0.57	0.34
O=C(Nc1ccncc1)C1(c2ccccc2)CCCC1
  0.27	-1.38
COc1cccc(N(CC(=O)Nc2cccc(F)c2)S(C)(=O)=O)c1
  0.62	0.05
CCOc1cccc(-c2c(C(=O)N/N=C(\C)c3ccncc3)nnn2-c2nonc2N)c1
  2.15	0.02
Cc1cccc(NC(=O)CSc2nnc(Cn3cnc4ccccc43)o2)c1
  0.87	1.25
Cc1ccc(N(Cc2ccc(C(=O)NCC3CCCO3)cc2)S(C)(=O)=O)cc1C (centres undefined)
  0.44	2.24
O=C(Nc1ccc2c(c1)OCO2)c1cc(-c2cccc(O)c2)on1
  0.39	-0.52
COc1ccc(OC)c(Nc2nc(C)nc3c2oc2ccccc23)c1
  0.66	0
Cc1cc(C)c(S(=O)(=O)c2ccccc2C(C)C)c(=O)[nH]1
  0.37	-1.83
Cc1cccc(-c2nc(=S)c3c(n2Cc2ccco2)CCCC3)c1
  1.27	-1.24

A section taken from the entries so far:
Each structure is followed by: KCNQ2 pot	KCNQ2 pot baseline
O=C(O)CCSCCCN1C(=O)c2cccc3cccc(c23)C1=O
  1.49	-2.27
COc1ccc(NC(=S)N=Nc2c(O)[nH]c3ccccc23)cc1
  0.5	0.44

Additional results follow.
Each structure is followed by: KCNQ2 pot	KCNQ2 pot baseline
CCCCN(C)C(=O)c1cc2cc3cc(OC)ccc3nc2o1
  0.8	-1.05
CCC(C#CCN1CCOCC1)(CC)OCCC#N
  0.03	0.61
COc1ccc(OC)c(CCNC(=O)CCn2ccc3cc(S(=O)(=O)N4CCCC4)ccc32)c1
  0.16	0.08
COc1ccc(S(=O)(=O)N2CCc3ccccc32)cc1NC(C)=O
  0.01	0.22
COc1ccc(-c2csc(N3CCC(C(N)=O)(N4CCCCC4)CC3)n2)cc1
  0.67	1.18
CCCCC(CC)C(=O)Nc1ccc(C)c(O)c1 (centres undefined)
  0.83	-2.01
CCCCOc1nc2ccccc2nc1NS(=O)(=O)c1ccc(F)cc1
  0.01	-0.01
O=C(N/N=C/c1ccccn1)c1cc(C2CC2)[nH]n1
  2.21	-1.84
CC(=O)NC(CC(=O)NCc1ccncc1)c1ccccc1 (centres undefined)
  1.18	0.77
Fc1cccc(Nc2ncnc3[nH]ncc23)c1
  0.67	0.5
COCCNC(=O)C(C)OC(=O)c1nsc(Cl)c1Cl (centres undefined)
  1.95	0.71
CCN1CCN(CC(=O)c2c[nH]c3ccc(C)cc23)CC1
  0.21	0.03
COc1ccc(Cc2nnc(SCC(=O)Nc3cc(Cl)ccc3C)[nH]c2=O)cc1
  0.88	0.01
COc1ccc(C(=O)c2ccc(-c3ccc(OC)cc3)nc2)cc1
  1.15	0.08
Cc1cnc(NC(=O)c2c(-c3ccccc3)noc2C)s1
  1.87	-1.3
O=C(Nc1cc(Cl)ccc1-n1cncn1)c1cncc(Br)c1
  1.3	-1.09
COC(=O)c1c(N)sc2c1CCN(c1ncc(C(F)(F)F)cc1Cl)C2
  2.71	0.31
O=C(CCN1C(=O)C2CC=CCC2C1=O)Nc1nccs1 (centres undefined)
  1.09	-1.91
O=C1CCCN1C(=O)COc1ccccc1[N+](=O)[O-]
  1.24	2.22
OC1(c2ccc(Cl)cc2)CCN(Cc2c[nH]c3ccccc23)CC1
  0.38	0.23
O=C(NCCN1C(=O)S/C(=C\c2ccc(Cl)c(Cl)c2)C1=O)c1ccc2c(c1)C(=O)N(Cc1ccncc1)C2=O
  2.25	-1.52
Cc1sc2nc(C(C)C)oc(=O)c2c1C
  0.49	0.37
N/C(=N/OC(=O)c1ccccc1Cl)c1nonc1N
  1.03	-1.21
Cc1ccc(S(=O)(=O)N2CCC(C(=O)N[C@@H](C)C(=O)NCc3ccccc3)CC2)cc1
  0.1	-0.03
O=C(NCCCO)c1cc2c(cn1)[nH]c1ccccc12
  0.14	0.71
CCOC(=O)CCNC(=O)N1CCCC(CNS(=O)(=O)Cc2ccccc2)C1 (centres undefined)
  0.03	0.73
COc1ccc(C(=O)c2oc3ccc(OC)cc3c2NC(C)=O)cc1
  0.78	-0.64
CN1C(=O)[C@H]2[C@@H](/C=C/c3ccccc3)N3C(=O)CN(CCO)C(=O)[C@@]3(C)[C@H]2C1=O
  0.24	-0.69
CC(=O)CCC(=O)OCC(=O)c1ccc(C(F)(F)F)cc1
  2.22	0.1
CC(C)CN(CC(C)C)S(=O)(=O)N1CCC(C(=O)NCc2ccc3c(c2)OCO3)CC1
  4.8	-0.12
COc1ccc(C(O)C(CN2CCOCC2)c2ccccc2)cc1F (centres undefined)
  0.27	0.36
Cc1ccc(-c2nc(C#N)c(N3CCC(C(N)=O)CC3)o2)cc1
  0.33	-0.08
COc1ccc(CNC(=O)CCN2C(=S)NC(C)(C)CC2C)cc1 (centres undefined)
  0.69	-0.02
Cc1nn(-c2ccc(F)cc2)c(Cl)c1/C=N/NC(=O)c1cccc(S(=O)(=O)N2CCCC2)c1
  0.24	-0.39
COc1ccc(OC)c(NC(=O)C2CCN(c3ncccn3)CC2)c1
  0.04	0.05
Cc1[nH]c2ccccc2c1/C=N\NC(=O)c1ccco1
  0.76	0.92
O=C(O)C1CCN(C(=O)COc2ccc(Br)cc2)CC1
  0.99	1.53
O=C(O)Cc1sc(-c2ccccc2Cl)nc1-c1ccccc1
  1.02	-0.5
O=C(N/N=C/c1ccsc1)c1cc(-c2cccs2)nc2ccccc12
  0.04	2.09
CCC(c1nnnn1Cc1ccco1)N(CCN1CCOCC1)Cc1cc2cc(C)ccc2[nH]c1=O (centres undefined)
  0.18	0.56
Cc1ccc(-n2c(C)cc(C)c(C#N)c2=O)cc1C
  1.85	0.02
Cc1c(C(=O)O/N=C(\N)c2ccccn2)cccc1[N+](=O)[O-]
  0.68	0.92
CC(=O)Nc1ccc(S(=O)(=O)NCC(=O)OCc2ccccc2)cc1
  1.22	0.04
CCn1c(SCC(=O)Nc2ccc3c(c2)OCO3)nc2c(c1=O)SC(C)C2 (centres undefined)
  0.44	-0.17
O=C(Nc1ccccc1N1CCCCC1)c1ccc(Cl)c([N+](=O)[O-])c1
  0.91	1.12
O=C(CCNS(=O)(=O)c1ccccc1C(F)(F)F)N1CCN(c2ccccc2O)CC1
  0.15	0.01
COc1ccc(Cl)cc1N1C(=O)C2CCCN2C1c1sccc1C (centres undefined)
  0.02	-0.42
CN1C(=O)[C@H]2[C@@H](C3CC3)N3C(=O)CN(CC4CC4)C(=O)[C@@]3(C)[C@H]2C1=O
  0.91	-0.04
CC(C)CCNC(=O)c1onc(CSc2ccncc2)c1C(=O)NCCC(C)C
  0.96	0.61
CN(C)CCCN(Cc1ccccc1)C(=S)Nc1ccc(SC(F)F)cc1
  1.59	-1

Next part:
Each structure is followed by: KCNQ2 pot	KCNQ2 pot baseline
CC1Cc2ccccc2N1C(=O)c1ccc2c(c1)OCO2 (centres undefined)
  1.5	-1.13
COc1cccc(C2C(C(=O)c3ccc(C)o3)=C(O)C(=O)N2CCN2CCOCC2)c1 (centres undefined)
  0.87	-2.96
NC(=O)c1nn(-c2ccccc2)nc1NC(=O)CN1CCCCC1
  0.47	-0.05
N/C(COc1ncn(-c2ccccc2)n1)=N\S(=O)(=O)c1ccccc1
  1.48	0.55
COc1ccc(NC(=O)c2cn(C)c(=O)c3cc(OC)c(OC)cc23)cc1OC
  0.23	0.84

Compound activity (PubChem)
